Compound activity from PubChem BioAssay.
Rango complex inh = inhibitors of Rango-importin beta complex formation; Potency, µM (doses to about 92.2 µM), for inactives: at the top dose inhibition of complex formation; Q14974; Rango CFP/YFP FRET sensor + importin beta, 45 min; hit rate 0.031% among 340,000; active = rising FRET ratio curve, often small or poorly fitted; inconclusive = mostly compound fluorescence or quenching in the first reads; inactive = flat curves in all reads;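 also: potency is read from the fitted curve at half-maximal effect; 0% = DMSO wells and 100% = buffer wells lacking importin beta; nearly all actives have a fitted effect of over 15% in size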
Target sequence (Q14974 whole entry, looked up): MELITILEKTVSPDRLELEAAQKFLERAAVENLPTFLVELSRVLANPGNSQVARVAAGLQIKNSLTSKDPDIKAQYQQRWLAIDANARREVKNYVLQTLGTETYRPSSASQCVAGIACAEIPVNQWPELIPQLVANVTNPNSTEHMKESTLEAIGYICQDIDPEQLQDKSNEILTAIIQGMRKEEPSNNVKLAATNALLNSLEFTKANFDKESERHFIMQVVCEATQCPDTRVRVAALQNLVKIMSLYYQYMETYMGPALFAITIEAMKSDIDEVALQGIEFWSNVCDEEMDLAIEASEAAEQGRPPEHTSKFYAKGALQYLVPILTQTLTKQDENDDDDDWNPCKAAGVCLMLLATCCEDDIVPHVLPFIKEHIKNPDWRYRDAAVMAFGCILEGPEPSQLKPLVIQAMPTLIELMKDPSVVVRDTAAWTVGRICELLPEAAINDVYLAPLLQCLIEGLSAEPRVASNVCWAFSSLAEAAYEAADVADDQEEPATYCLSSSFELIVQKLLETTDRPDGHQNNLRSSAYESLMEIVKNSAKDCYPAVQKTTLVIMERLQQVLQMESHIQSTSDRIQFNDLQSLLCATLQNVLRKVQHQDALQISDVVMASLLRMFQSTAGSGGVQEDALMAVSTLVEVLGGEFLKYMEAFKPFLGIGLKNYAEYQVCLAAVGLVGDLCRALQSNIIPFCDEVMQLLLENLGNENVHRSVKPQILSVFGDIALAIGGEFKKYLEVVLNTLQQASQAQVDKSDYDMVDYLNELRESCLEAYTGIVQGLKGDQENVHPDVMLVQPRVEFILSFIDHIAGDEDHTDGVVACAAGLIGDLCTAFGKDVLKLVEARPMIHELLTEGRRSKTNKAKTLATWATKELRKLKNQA
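Inhibition scored from the CFP 486 nm/YFP 530 nm FRET ratio 45 min after adding 0.125 microM importin beta to 50 nM Rango biosensor preincubated 5 min with compound (room temperature, PBS with DTT, Tween-20, BSA). No-importin wells as positive control.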
miR-21 FLuc = miR-21 reporter, rising signal | HeLa miR-21 FLuc reporter, luciferase, 48 h | Potency, µM (highest dose often 38.3 µM), inactives show top-dose reporter change, positive = more light | 340,000 tested, under 10 active; active = well fitted rising curve with a large enough effect; inconclusive = small, poorly fitted or top-dose-only effect; inactive = no such curve, though single readings can be large or run the other way;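 also: % of control where 0% means no effect; miR-21 action dims this reporter so a rising signal means less miR-21 action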
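Luminescence from a firefly luciferase reporter carrying a miR-21 binding site downstream, stably expressed under a CMV promoter in HeLa cells that make miR-21 endogenously, reports miRNA modulation after 48 h compound exposure up to approximately 40uM final.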
GLA inh pH 4.5 = inhibitors of human alpha-galactosidase A at pH 4.5; purified enzyme, 4-MU-alpha-Gal fluorescence, pH 4.5; P06280; activity change, negative = inhibition, % at 105 µM; 230,000 tested, under 10 active; AID 1467; inconclusive = small, poorly fitted or top-dose-only inhibition, or a rising curve; inactive = flat fitted curve, though single readings scatter; no compound was filed as active;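 also: 0% = full activity with enzyme and -100% = basal without enzyme; dose as in the result columns while the protocol names 77 µM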
Rango dissoc inh = inhibition of RanGTP-driven Rango-importin beta dissociation; O95149+P62826; Biochemical FRET Rango-importin beta, RanGTP-induced dissociation; Potency, µM (top dose mostly 46.1 µM), for inactives: at the highest dose activity change, negative = inhibition; hit rate 0.071% among 340,000; AID 540253; active means falling FRET ratio curve, often poorly fitted, with flat reads before Ran was added; inconclusive means other falling curves, or compound fluorescence or quenching; inactive means flat or rising ratio curve;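 also: potency is read from the fitted curve at half-maximal effect; % of control where 0% means no effect; nearly all actives have a fitted effect of over 45% in size; -100% = wells without RanGTP and RCC1; the record marks most hits as doubtful in a second field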
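FRET read at 45 min, room temperature: inhibitors block the CFP/YFP signal rise when RanGTP (0.6 uM Ran, 2 mM GTP, 0.2 uM RCC1) frees Rango (0.1 uM) from importin beta (0.25 uM). Pre-read after 5 min compound exposure flags interference.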
The depositor's hits bear a star; ? = inconclusive; nt = not tested or not shown; & = joins results of further samples. An excerpt, so the mix of outcomes need not match the whole.

Rango complex inh,miR-21 FLuc,GLA inh pH 4.5,Rango dissoc inh,Molecule
2.6%,-1%,3,?,Cc1cc(NN)nc(NS(=O)(=O)c2ccccc2)n1
-1.7%,-2%,-2,8%,CCOc1cc(CNCCc2c[nH]c3ccccc23)cc(Cl)c1OCC(N)=O
0.6%,-6%,4,0%,CCOC(=O)c1cc(C#N)c(NCc2ccccc2)nc1C
-1.3%,-19%,-4,6%,CCn1c2ccccc2c2cc(NC(=O)c3cccc(OC)c3OC)ccc21
0.2%,nt,nt,1%,Cc1ccc(S(=O)(=O)NCC(=O)OCC(=O)N2CC(C)OC(C)C2)cc1 (stereo unspecified)
0.5%,nt,nt,0%,CCc1nc2ccc(C(=O)N(C)CC(=O)Nc3ccc(Cl)c(C(F)(F)F)c3)cc2nc1CC
3.6%,nt,nt,1%,NC(=O)C1CCN(c2oc(-c3cccs3)nc2S(=O)(=O)c2ccc(Cl)cc2)CC1
0.6%,-5%,nt,21%,CC1CCN(CC(O)COc2ccc(C(=O)c3ccccc3)cc2)CC1 (stereo unspecified)
2.0%,2%,-21,-3%,CC1(C)CC(=O)C(N=Nc2ccc(S(=O)(=O)N3CCOCC3)cc2)=C(O)C1
0.0%,-2%,-6,3%,O=C1c2ccccc2C(=O)N1Cc1nc2ccccc2o1
-2.2%,-23%,nt,-3%,O=[N+]([O-])c1cccnc1SCc1ccccc1
3.7%,0%,-5,-3%,COc1ccc(N2CCN(C(=S)Nc3cccc(C)c3C)CC2)cc1
1.1%,-5%,1,-4%,Cc1ccc(NC(=S)N(Cc2cccs2)Cc2cc3cc(C)cc(C)c3[nH]c2=O)cc1
-0.2%,-2%,nt,-4%,CC(C)C[C@H](NC(=O)C1CCN(S(=O)(=O)c2ccccc2)CC1)C(=O)NCc1ccccn1
-6.8%,nt,nt,8%,COC(=O)[C@H]1C[C@H]1[C@@H](NC(=O)c1cccnc1)c1ccccc1
0.6%,0%,-9,0%,CC(C)NC(=S)Nc1c(N)[nH]c(=O)[nH]c1=O
0.2%,1%,nt,10%,Cc1ccc(N2CCN(S(=O)(=O)c3ccc4c(c3)NC(=O)C(C)C(=O)N4)CC2C)cc1 (stereo unspecified)
-1.3%,-18%,-4,-6%,CS(=O)(=O)c1ccc2nc(N)sc2c1
-4.7%,-27%,2,9%,COc1cccc(NC(=O)Cc2ccc(C)cc2)c1
0.1%,-6%,21,-11%,CC1=C(C#N)C(/C=N/OCc2ccc(F)cc2Cl)CC(=O)N1 (stereo unspecified)
0.0%,-9%,-10,0%,COCn1ccnc1C(O)(c1ccc(OC)cc1)c1ccc(OC)cc1
1.2%,-28%,-8,-7%,CC1(C)Cc2nc3nc(SCC(=O)Nc4ccccc4)nc(N)c3cc2CO1
-2.6%,7%,9,-13%,COc1ccccc1-n1c(SCC(=O)Nc2ccccc2C)nc(O)cc1=O
0.9%,nt,nt,-1%,CCOc1ccc(S(=O)(=O)N2CCN(C(=O)c3cc([N+](=O)[O-])ccc3N3CCOCC3)CC2)cc1
-0.9%,nt,nt,-8%,CC(C)(C)OC(=O)C[C@H]1C/C=C\C[C@H](CC(=O)N[C@H](CO)Cc2ccccc2)C(=O)N[C@H](C(C)(C)C)COC1=O
0.0%,1%,nt,-19%,C=CCn1c(O)c2ccc(C(=O)N=NC(=O)COc3ccc(OC)cc3)cc2c1O
-2.6%,-7%,nt,-4%,CC1(NC(=O)C2CCN(C(=O)Nc3ccccc3)CC2)CCS(=O)(=O)C1 (stereo unspecified)
-2.8%,-1%,nt,-6%,N#Cc1c(-c2ccccc2)nc(SCC(=O)Nc2ccc(OC(F)(F)Cl)cc2)[nH]c1=O
-2.7%,7%,2,3%,CCOCCCNC(=O)c1cc(Sc2nnc(C)s2)nc2ccccc12
-1.0%,-9%,nt,4%,Cc1ccc2nc(N3CCN(C(=O)c4ccco4)CC3)c3nncn3c2c1
-1.0%,-5%,5,5%,COc1ccc(N2CCN(c3oc(Cc4cccc5ccccc45)nc3C#N)CC2)cc1
-1.2%,-3%,-13,-8%,CCOc1ccc(Nc2nc(Cc3nnc(SCC(=O)O)o3)cs2)cc1
-0.5%,0%,nt,-7%,Cc1ccc(N(CC(=O)N2CCN(Cc3ccccc3)CC2)S(C)(=O)=O)cc1C
2.9%,-5%,-4,9%,Cc1cc(C)nc(Sc2ccc([N+](=O)[O-])cc2[N+](=O)[O-])n1
7.3%,nt,nt,12%,COc1ccc(Cc2nnc(SCC(=O)Nc3ccc(C)cc3C)[nH]c2=O)cc1
-1.3%,nt,nt,-5%,CC(C)[C@H](NC(=O)c1cccc(CN(Cc2ccccc2)C(=O)c2ccccc2)c1)C(=O)O
?,nt,nt,3%,O=C1CCN(Cc2ccc(Cl)cc2Cl)C(=O)N1
0.2%,-3%,-16,-10%,COc1cccc(-n2nc(C(=O)N3CCN(Cc4ccccc4)CC3)c3ccccc3c2=O)c1
11%,nt,nt,4%,CS(=O)(=O)c1ccc(CNC(=O)[C@]2(C(F)(F)F)C[C@H](CCc3ccccc3)CCCO2)cc1
1.3%,-2%,nt,-13%,COc1ccc(N2CCN(C(=O)NCc3cccc(OC)c3)CC2)cc1
-2.2%,23%,0,-9%,Cc1ccc(C(=O)c2cccc(N)c2)cc1C
-1.6%,nt,nt,0%,Cc1cc(NC(=O)C(C)SCC(=O)N(C)Cc2c(F)cccc2Cl)no1 (stereo unspecified)
4.1%,-1%,2,-6%,Nc1nc(-c2ccccc2)cc(N2CCCCC2)n1
0.4%,24%,-14,3%,O=C(Nc1ccc(C2=NCCN2)cc1)c1ccc(C(=O)Nc2ccc(C3=NCCN3)cc2)c([N+](=O)[O-])c1
?,0%,nt,-9%,CCCn1c(SCC(=O)NC2CCCCC2)nnc1C1CC1
12%,-4%,-5,-16%,Cc1ccc(-n2c3c(cc(C(=O)O)c2=O)C(=O)CC(C)(C)C3)cc1
-3.3%,-10%,1,12%,O=C(CNC(=S)NC(=O)c1cccc([N+](=O)[O-])c1)c1ccccc1
0.7%,-15%,nt,-17%,CCN(CC(=O)Nc1c(F)cccc1F)C(=O)c1ccc(C(F)(F)F)cc1
-1.3%,-1%,-4,6%,C=CCn1c(C(C)NC(=O)CCC)nc2ccccc21 (stereo unspecified)
2.1%,-6%,-4,-9%,COc1cccc(CN(c2ccc3c(c2)CCC3)S(=O)(=O)c2ccc(-n3cnnn3)c(OC)c2)c1
-0.3%,0%,3,1%,CCSc1nc(O)c(C2OC(=O)c3c2ccc(OC)c3OC)c(=O)n1-c1ccccc1 (stereo unspecified)
-0.2%,3%,-1,-9%,O=C(CSc1ccc(-c2ccncc2)nn1)N1CCCCC1
-1.8%,nt,nt,2%,O=C(COC(=O)c1cc([N+](=O)[O-])ccc1N1CCOCC1)NC1CCS(=O)(=O)C1 (stereo unspecified)
-5.2%,-40%,-21,1%,CC(C)(C)c1ccc(C(=O)N2CCC(C(=O)NCC3CCCO3)CC2)cc1 (stereo unspecified)
-3.8%,1%&14%,nt,3%,CCOc1ccccc1NC(=O)CSc1nc2ccccc2nc1N1CCOCC1
5.7%,13%,nt,-21%,CCC(=O)Nc1ccc(NC(=O)CSc2nnc(-c3ccco3)n2C)cc1
-2.3%,nt,nt,1%,O=C(NCCS(=O)(=O)NCc1ccccn1)c1ccccc1
-0.5%,nt,nt,1%,COc1cccc(NC(=O)CN(C)C(=O)/C=C/c2cn(-c3ccccc3)nc2-c2ccc(OC)c(OC)c2)c1
nt,11%,-2,nt,Cc1ccc2c(C)nc(NC3=NCN(Cc4ccccc4)CN3)nc2c1
0.2%,-15%,5,27%,CC1=NN(C(N)=S)C(=O)C1N=Nc1cccc(C)c1 (stereo unspecified)

Continued:
Rango complex inh,miR-21 FLuc,GLA inh pH 4.5,Rango dissoc inh,Molecule
0.3%,5%,nt,0%,Cn1c(=O)c2c(nc(Oc3cccc(O)c3)n2C)n(C)c1=O
0.1%,-7%,-5,11%,Cn1c(=O)c(C(=O)CCl)c(N)n(CC2CC2)c1=O
0.5%,nt,nt,-14%,Cc1cccc(C(=O)NC(C)C2CC3CCC2C3)c1 (stereo unspecified)
1.3%,nt,nt,-17%,O=C1N(c2ccccc2C(F)(F)F)O[C@]1(c1ccccc1)C1CCCCC1
0.5%,14%,-12,-3%,Cc1ccc(NC(=S)N(CCCN2CCC(C)CC2)Cc2ccco2)cc1C
-4.4%,0%,3,0%,O=C(COC(=O)c1cn(-c2ccccc2)nc1-c1ccccc1)c1cccc([N+](=O)[O-])c1
-1.4%,-6%,8,3%,O=C(COC(=O)c1ccc2c(c1)OCO2)Nc1ccccc1
2.8%,-2%,3,0%,Cn1nnnc1SCC(=O)N(C1CCCCC1)C1CCCCC1
10%,-5%,-12,24%,O=C(COC(=O)c1n[nH]c(=O)c2ccccc12)c1ccc(Cl)cc1
-1.1%,nt,nt,-21%,CC(OC(=O)COc1ccc(C#N)cc1)C(=O)Nc1ccc(Cl)cn1 (stereo unspecified)
0.5%,-40%,-15,-6%,Nc1[nH]c(N=NC(=O)c2ccc(Cl)cc2)c2ccccc12
?,-53%,-10,?,C/C(=N\Nc1ccc(C(=O)O)cc1)c1ccc2c(c1)Nc1ccccc1S2
-3.7%,-6%,-2,4%,CCS(=O)(=O)c1nc2ccccc2n1CC(=O)N1CCOCC1
5.5%,-8%,-3,5%,Cn1cc(Br)c(C(=O)N2CCN(c3cccc(Cl)c3)CC2)n1
0.5%,18%,nt,-8%,COCCNC(=S)N(CCc1c(C)[nH]c2ccc(OC)cc12)Cc1ccco1
?,-9%,-6,10%,COc1ccc(Cl)cc1NC(=O)C1CCCO1 (stereo unspecified)
-2.3%,-2%,13,-10%,Cc1ccc(-c2cccc(C(=O)NCc3ccccc3)n2)c2ccccc12
nt,11%,-7,nt,COc1ccc(N2CCN(CCCNS(=O)(=O)c3c(C)noc3/C=C/N(C)C)CC2)cc1
0.3%,nt,nt,?,CCOC(=O)NC(=O)CSc1ccc(S(=O)(=O)N2CCCCC2)cn1
5.1%,nt,nt,-4%,C#CCOCCOCCOCCNc1nc(N2CCN(C(=O)CCCCCCCCCCNC(=O)[C@H]([C@@H](C)CC)n3cc(CCCCCN)nn3)CC2)nc(N2CCN(C(=O)CCCCCCCCCCNC(=O)[C@H](CCCCN)n3cc(CCCC(=O)O)nn3)CC2)n1
-4.3%,0%,2,1%,COC(=O)c1cc(=O)n(CCc2ccccc2F)c(=Nc2ccc(F)c(Cl)c2)s1
?,-1%,nt,?,CC(=O)N1CCc2c(sc(NC(=O)C3CCCCC3)c2C(N)=O)C1
-0.6%,-5%,14,14%,O=C(CCC(=O)c1ccc(Cl)cc1)OCC(=O)c1ccccc1
-3.6%,-8%,4,-3%,CSc1nsc(SCc2ccc(Cl)cc2)n1
1.4%,0%,4,-8%,O=C(CSc1nc(-c2ccco2)cc(C(F)(F)F)n1)Nc1ccc(C(=O)N2CCOCC2)cc1
2.5%,nt,nt,-1%,COc1ccc(C(=O)NC(=O)CSc2n[nH]c(N)n2)cc1
3.1%,-6%,0,-7%,CC(C)(CO)NC(=O)Nc1ccc(Cl)c(Cl)c1
?,nt,nt,2%,C=CCN(c1ccccc1OC)S(=O)(=O)c1cccc(C(=O)OCC(=O)c2c(N)n(C)c(=O)n(C)c2=O)c1
0.5%,-1%,10,7%,O=C(COC(=O)c1ccccc1SCC(=O)NC1CCS(=O)(=O)C1)NC1CCS(=O)(=O)C1 (stereo unspecified)
-0.8%,-15%,nt,3%,O=C(NC(=S)Nc1ccccc1O)c1cccnc1

4 records picked at random from those above, as already listed:
Rango complex inh,miR-21 FLuc,GLA inh pH 4.5,Rango dissoc inh,Molecule
-0.8%,-15%,nt,3%,O=C(NC(=S)Nc1ccccc1O)c1cccnc1
5.1%,nt,nt,-4%,C#CCOCCOCCOCCNc1nc(N2CCN(C(=O)CCCCCCCCCCNC(=O)[C@H]([C@@H](C)CC)n3cc(CCCCCN)nn3)CC2)nc(N2CCN(C(=O)CCCCCCCCCCNC(=O)[C@H](CCCCN)n3cc(CCCC(=O)O)nn3)CC2)n1
2.5%,nt,nt,-1%,COc1ccc(C(=O)NC(=O)CSc2n[nH]c(N)n2)cc1
?,nt,nt,2%,C=CCN(c1ccccc1OC)S(=O)(=O)c1cccc(C(=O)OCC(=O)c2c(N)n(C)c(=O)n(C)c2=O)c1
